# Screening results from PubChem BioAssay.
# Anthrax LT inh: inhibitors of anthrax lethal toxin internalization | Cells, anthrax lethal toxin internalization, FRET ratio (460/530) | Potency, µM (titrated, usually from 40 µM), for inactives: top-dose activity change, negative = inhibition, actives largely listed as inhibitors | hit rate 0.67% among 70,000 | AID 912; active = well fitted falling ratio curve with the 530 nm signal flat; inconclusive = other ratio curves, or a change in one channel alone; inactive = flat curves in the ratio and both channels; the % refers to the ratio; note: % is set by controls: 0 for no effect and ±100 for the full control effect; nearly all actives have a fitted effect of over 50% in size; tested in ME-180 cells; beta-lactamase reporter
# Prx2 Sm inh: inhibitors of Schistosoma mansoni peroxiredoxin 2; S. mansoni Prx2 activity coupled to TGR/GSH (TGR is thioredoxin glutathione reductase), NADPH fluorescence loss, qHTS; some inactives read as strong as hits; Potency, µM; hit rate 0.07% among 65,000; AID 448; active means full or partial inhibition curve with a strong effect at the top dose; inconclusive means weaker partial or single-point curve; inactive means no accepted curve; note: series up to 57 µM; many of its hits are not listed in these tables
#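 Activity is read as the drop in NADPH fluorescence (365/450 nm), recorded every 30 sec for 8 min after H2O2 addition. Prx2 is coupled to TGR-driven NADPH oxidation through glutathione, in phosphate buffer pH 7.4.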
# Numbers without * were called inactive; ? = inconclusive; nt = no result given; & = joins results of further samples; [ ] = remark or other dose. Potency is the fitted concentration of half-maximal effect. The list is partial. The share of hits here may be higher or lower than overall.
SMILES,Anthrax LT inh,Prx2 Sm inh
N#Cc1ccc(CN2CC3(CCN(C(=O)c4cc(C(F)(F)F)cc(C(F)(F)F)c4)CC3)C2)cc1,?,>57
COCCOC(=O)C1=C(C)OC(N)=C(C#N)C1c1ccc2c(c1)OCO2 (configuration not stated),-9%,nt
COc1cc(S(=O)(=O)N2CCC(C(N)=O)CC2)c(C)cc1C,6%,>57
COc1ccc(S(=O)(=O)N2CCN(C(=O)NC3CCCCC3)CC2)cc1OC,-2%,?
O=C(c1cccs1)N1CCN(S(=O)(=O)N2CCCCC2)CC1,-11%,>57
CCCN1C(=O)C2C(C(=O)Nc3cccc(OC)c3)C3C=CC2(O3)C1C(=O)NC1CCCCC1 (configuration not stated),5%,>57
O=C(O)c1ccc(NS(=O)(=O)c2ccsc2C(=O)O)c(O)c1,-5%,nt
O=C(Nc1ccc(Cl)cc1C(=O)O)c1ccc2c(c1)C(=O)N(Cc1ccco1)C2=O,?,>57
Cc1ccc2c(c1)C1CN(C)CCC1N2C(=O)Cn1nnc(-c2ccccc2F)n1 (configuration not stated),-5%,>57
O=S(=O)(NCCSc1ccc(Cl)cc1)c1ccc2c(c1)OCCO2,-25%,>57
CN(CCO)Cc1ncccc1O,1%[8 µM],>57
COc1nc(NC(C)(C)C)nc(Oc2ccc(=O)n(C)n2)n1,-1%,>57
CC1(C)O[C@H]2C[C@@H]3[C@H]4CCC5=CC(=O)CC[C@@]5(C)[C@]4(F)[C@@H](O)C[C@@]3(C)[C@@]2(C(=O)CCl)O1,8%[3.58 µM],>57
Cc1ccc(NC(=O)CSc2nnc(-c3ccc(S(=O)(=O)N4CCCC4)cc3)o2)cc1C,?,>57
C[C@@H]1CCC[C@H](C)N1,2%[3.58 µM],>57
CCOCCCNC(=O)c1cc(C)nn1-c1ccccc1,3%,>57
CC(C)(C)c1ccc(OCC(=O)O)c(Cl)c1,8%[8 µM],>57
COc1cc2ccccc2cc1C(=O)N1CCN(C)CC1,-10%,>57
CCOC(=O)N1CCN(C(=O)c2ccc3nc4ccsc4c(=O)n3c2)CC1,8%,>57
COC(=O)c1ccccc1NC(=O)Cn1ccnc1,10%,>57
O=C1CC(c2cccs2)c2cc3c(cc2N1)OCO3 (configuration not stated),1%,>57
CCOc1ccc2nc(N3CCCC(C(=O)N4CCN(CC)CC4)C3)sc2c1 (configuration not stated),-4%,>57
CCS(=O)(=O)Nc1cccc(C(=O)CC2(O)C(=O)Nc3ccccc32)c1 (configuration not stated),-25%,>57
Cc1ccc2nc(CC(=O)c3ccc4ccccc4c3)c(=O)[nH]c2c1,-19%[8 µM],>57
CCOc1ccc(N2C(=O)c3cccnc3C2Nc2ccc(Cl)cc2)cc1 (configuration not stated),nt,>57
O=C1N(CN2CCOCC2)c2ccccc2C1(O)c1c[nH]c2ccccc12 (configuration not stated),-5%,>57
Cc1ccc2c(c1)C(O)(c1c(C)[nH]c3ccccc13)C(=O)N2 (configuration not stated),-22%,>57
CCC[C@@H]1C[C@@]1(CCC)[C@@H](NP(=O)(c1ccccc1)c1ccccc1)c1ccc(C(=O)OC)cc1,?,nt
O=C(CN1C(=O)CSC1=O)Nc1ccc(F)c(F)c1F,4%,>57
Clc1ccc(NC2=NCCCCC2)cc1,?,>57
Cc1ccnc(SCCn2c(N3CCCCC3)nc3c2c(=O)n(C)c(=O)n3C)n1,7%,>57
Cn1c(=O)c(=O)n(C)c2cc(S(=O)(=O)N3CCc4ccccc43)ccc21,-4%,>57
CC1CCN(C(=O)CSc2nnc(Cc3cccn3C)n2CCc2ccccc2)CC1,?,>57
O=C(c1cc(C(F)(F)F)cc(C(F)(F)F)c1)N1CCC2(CCCN(c3ccccc3)C2)CC1,?,>57
CC1CN(c2nc(-c3ccccc3)nc3ccccc23)CC(C)O1 (configuration not stated),-21%,nt
COc1ccc(S(=O)(=O)N2CCC(C)CC2)cc1Br,-11%,>57
CC(C)(C)c1onc(OCP(=O)(O)O)c1C[C@@H](N)C(=O)O,-4%,>57
Cc1noc(NS(=O)(=O)c2ccc(NC(=O)CS(=O)(=O)c3ccccc3)cc2)c1C,-8%,>57
O=C(Nn1c(Cc2cccs2)nc2ccccc2c1=O)c1cccs1,16%,>57
COc1ccc(N2CC(C)Cn3c2nc2c3c(=O)n(Cc3ccccc3F)c(=O)n2C)c(OC)c1 (configuration not stated),?,>57

# An excerpt from further up, for reference:
SMILES,Anthrax LT inh,Prx2 Sm inh
O=C1CC(c2cccs2)c2cc3c(cc2N1)OCO3 (configuration not stated),1%,>57
CCOc1ccc2nc(N3CCCC(C(=O)N4CCN(CC)CC4)C3)sc2c1 (configuration not stated),-4%,>57
CCS(=O)(=O)Nc1cccc(C(=O)CC2(O)C(=O)Nc3ccccc32)c1 (configuration not stated),-25%,>57
Cc1ccc2nc(CC(=O)c3ccc4ccccc4c3)c(=O)[nH]c2c1,-19%[8 µM],>57
CCOc1ccc(N2C(=O)c3cccnc3C2Nc2ccc(Cl)cc2)cc1 (configuration not stated),nt,>57
O=C1N(CN2CCOCC2)c2ccccc2C1(O)c1c[nH]c2ccccc12 (configuration not stated),-5%,>57
Cc1ccc2c(c1)C(O)(c1c(C)[nH]c3ccccc13)C(=O)N2 (configuration not stated),-22%,>57
CCC[C@@H]1C[C@@]1(CCC)[C@@H](NP(=O)(c1ccccc1)c1ccccc1)c1ccc(C(=O)OC)cc1,?,nt
O=C(CN1C(=O)CSC1=O)Nc1ccc(F)c(F)c1F,4%,>57
Clc1ccc(NC2=NCCCCC2)cc1,?,>57
Cc1ccnc(SCCn2c(N3CCCCC3)nc3c2c(=O)n(C)c(=O)n3C)n1,7%,>57
Cn1c(=O)c(=O)n(C)c2cc(S(=O)(=O)N3CCc4ccccc43)ccc21,-4%,>57
CC1CCN(C(=O)CSc2nnc(Cc3cccn3C)n2CCc2ccccc2)CC1,?,>57
O=C(c1cc(C(F)(F)F)cc(C(F)(F)F)c1)N1CCC2(CCCN(c3ccccc3)C2)CC1,?,>57
CC1CN(c2nc(-c3ccccc3)nc3ccccc23)CC(C)O1 (configuration not stated),-21%,nt
COc1ccc(S(=O)(=O)N2CCC(C)CC2)cc1Br,-11%,>57
CC(C)(C)c1onc(OCP(=O)(O)O)c1C[C@@H](N)C(=O)O,-4%,>57

# The listing continues:
SMILES,Anthrax LT inh,Prx2 Sm inh
COC(=O)c1ccc(NC(=O)c2ccccc2N(C)S(C)(=O)=O)cc1,8%,>57
COc1ccccc1Cn1c(=O)c2ccccc2n2c(SCC(=O)N3CCCCC3)nnc12,?,>57
CCOC(=O)C1CCN(C(=O)c2c(-c3c(Cl)cccc3Cl)noc2C)CC1,-11%,>57
COc1cc(C(=O)Nc2nnc(-c3sccc3C)s2)cc(OC)c1OC,1%,>57
CCCCN(CC)CCNC(=O)CN(C)S(=O)(=O)c1ccc2c(c1)c(=O)n(C)c(=O)n2C,?,>57
CCOCCCNC(=O)N[C@@H](C)C(=O)OC,?,>57
C=CCn1c(SCc2ccc(C#N)cc2)nnc1-c1cccc(OC)c1,-7%,>57
CCCCC(NC(=O)c1ccc(Cl)cc1)C(=O)O (configuration not stated),?,>57
Cc1cc(C(F)(F)F)nn1CC(=O)N1CCCC1,16%,>57
Cc1ccc(C2c3c(oc4ccccc4c3=O)C(=O)N2c2nnc(C(C)C)s2)o1 (configuration not stated),1%,>57
CCOC(=O)N1CCC(Nc2nc3ccccc3nc2NS(=O)(=O)c2ccc(Cl)cc2)CC1,-24%,>57
CCN(CC(=O)O)S(=O)(=O)c1cc(Cl)ccc1Cl,10%,>57
COc1ccc(NC2CC(=O)NC2=O)cc1 (configuration not stated),-10%,>57
Cc1c(C)c(C)c(CC2(C)CSC2)c(CC2(C)CSC2)c1C,-3%[8 µM],>57
COc1cccc(=O)c2c(C)n(C)c(C)c12,-10%,>57
NC(=O)C1CCN(C(c2ccccc2Cl)c2nnnn2Cc2ccc3c(c2)OCO3)CC1 (configuration not stated),-1%,>57
CCOC(=O)c1c(C)c(C(=O)NCc2cccs2)c(C)n1C,-3%,>57
Cn1cccc1C(=O)N1CCC2(CC1)CN(Cc1cc(C(F)(F)F)cc(C(F)(F)F)c1)C2,?,>57
COc1ccc(-n2cnnc2SCc2csc(-c3ccccc3)n2)cc1,-7%,>57
COc1ccc(-c2cc(C(=O)N3CCCc4ccccc43)no2)cc1OC,-16%,>57
Cc1ccc(Cn2cccc(NC(=O)c3ccco3)c2=O)cc1,12%,>57
CCN(CC)CCNC(=O)c1c(O)c2cccc3c2n(c1=O)CCC3,-8%,>57
Cc1ccc(S(=O)(=O)CC(=O)N(C)C)cc1,15%,>57
Cc1nn(C)cc1CNC(=O)c1ccccc1Br,3%,>57
COc1ccc(NS(=O)(=O)c2ccc3oc4ccccc4c3c2)cn1,-29%,>57
O=C(Nc1nnc(C2CC2)s1)c1cc(-c2ccccc2)nn1-c1ccccc1,?,>57
COc1ccccc1OCC(=O)Nc1ccc(S(=O)(=O)Nc2nc(C)cc(C)n2)cc1,6%,>57
CCCS(=O)(=O)N1CCN(C(=O)c2ccccc2F)CC1,2%,>57
CC12CCC(CC1=O)C2(C)C (configuration not stated),4%,nt
COc1ccc(OC)c(NC(=O)CNC(=O)Cn2ccc3ccccc3c2=O)c1,-5%,>57
COc1cc(SC)ccc1C(=O)Nc1ccc2c(c1)CCN2S(C)(=O)=O,-17%,>57
O=C(Cc1c[nH]c2ccccc12)Nc1nccs1,-6%,>57
O=C(NC1CCCCC1)C(c1cccs1)N(CC1CCCO1)C(=O)c1csnn1 (configuration not stated),6%,>57
COc1ccc2nc(C)[nH]c(=O)c2c1,-8%,>57
Cc1sc2ncnc(N[C@@H](CCC(=O)O)C(=O)O)c2c1C,9%,>57
Cc1nnc(NC(=O)CSc2nnc(Cc3cccn3C)n2-c2ccccc2)s1,-8%,>57
COC(=O)c1ccc2c(=O)n(CCN3CCOCC3)c(SCC(=O)NC3CCCCC3)nc2c1,?,>57
CCCc1nc2c(=O)[nH]c3ccccc3c2o1,5%,>57
CC(=O)NC1CC2CCCC(C1)N2 (configuration not stated),-1%,>57
Cc1ccc(NC(=O)CNc2cccc(C)c2C)c(C)c1,-14%,>57
CCC(CC)(CC(=O)Nc1cccc(/C=C/c2nc(C3CCC3)cs2)c1)C(=O)O,-27%,nt
CCOC(=O)c1c(C)[nH]c(NC(=O)Nc2c(C)n(C)n(-c3ccccc3)c2=O)c1C,-4%,>57
Cc1ccc(N2CC(C(=O)OCC(=O)C(C)(C)C)CC2=O)cc1 (configuration not stated),-8%,>57
N=C(N)c1ccc(-c2ccc(-c3ccc(C(=N)N)cc3)o2)cc1,?,>57
O=S1(=O)CCC(N=Cc2cc(Br)ccc2O)C1 (configuration not stated),-5%,>57
Cc1cc(-c2nnc3sc(C4CCCCC4)nn23)n[nH]1,-10%,>57
COCCSc1ccccc1C(=O)Nc1cc(C)on1,?,>57
O=C(CSc1nnc(CN2CCCCCC2=O)n1-c1ccccn1)NCC(F)(F)F,-3%,>57
Cc1cc(C)n2nc(S(=O)(=O)N(C)Cc3ccccc3)nc2n1,14%,>57
CCC[CH2][Sn]([Cl])([Cl])[Cl],-12%,nt
# The list continues.
SMILES,Anthrax LT inh,Prx2 Sm inh
COc1ccc2c(CN(C)c3ccccc3)cc(=O)oc2c1,-1%,>57
CCC/C=C(\CCC)C(NC(=O)c1ccco1)c1ccc(C(=O)OC)cc1 (configuration not stated),-9%,>57
O=C(CC1CCCCC1)NCC1CCCO1 (configuration not stated),-3%,>57
O=C(Nc1ccccc1C(F)(F)F)c1cc(-c2cccc(O)c2)on1,13%,>57
COc1ccc(N2CCN(C(=O)c3ccc(CS(=O)(=O)c4ccc(OC)cc4)o3)CC2)cc1,-12%,>57
Cl/C(=C\n1cncn1)c1ccc(Cl)cc1Cl,?,>11
CC(C)CCNC(=O)C(C)N(Cc1ccc(F)cc1)C(=O)c1ccc(CN2CCCCC2)o1 (configuration not stated),-2%,>57
c1cn(-c2ccnc(-c3ccc4c(c3)OCO4)n2)cn1,?,>57
COc1ccc(CC(=O)OC(C)CN2CCCC2)cc1 (configuration not stated),-4%,>57
NC(=O)COC(=O)c1ccc(S(=O)(=O)N2CCCCCC2)cc1,-5%,>57
Cc1cn([C@H]2C[C@H](N=[N+]=[N-])[C@H](CO)O2)c(=O)[nH]c1=O,3%[8 µM],>57&>57
CCOC(=O)N=S(N)(=O)c1ccc(Cl)cc1 (configuration not stated),20%,>57
COc1ccc(CNC(=O)Nc2cccc(C)c2)cc1,1%,>57
O=C(c1ccco1)N1C(=O)c2cccc3cccc1c23,-5%,>57
N#Cc1cc2c(nc1SCc1ccccc1)CCCC2=O,-11%,>57
CN(C(=O)C1CCCO1)c1nnc(-c2ccncc2)s1 (configuration not stated),-1%,>57
O=c1c2ccc(-c3nnc4n3-c3ccccc3SC4)cc2nc2n1CCCCC2,4%,>57
O=C(Nc1nnc(-c2ccco2)s1)C1CCCCC1,?,>57
C[N+](C)(C)CC=O,-8%,>57
Cn1cccc1Cc1nnc(SCC(=O)NCc2ccc(F)cc2)n1-c1ccc(F)cc1,-2%,>57
COCCn1c(=O)c2c3c(sc2n(CC(N)=O)c1=O)CCCC3,6%,>57
CCN(CC)CCCNC(=O)CC1Oc2ccc(C)cc2NC1=O (configuration not stated),5%,>57
CCOc1ccccc1C1C(C(=O)Nc2ccccc2OC)=C(C)Nc2nc(CCCO)nn21 (configuration not stated),-13%,>57
Oc1c(C(c2ccc(F)cc2)N2CCc3ccccc3C2)sc2ncnn12 (configuration not stated),5%,>57
CCOc1ccc(CCNC(=O)C2CCN(S(=O)(=O)CC)CC2)cc1OCC,4%,>57
